# FGF22 binding: binders of recombinant human FGF22 by thermal shift | Q9HCT0 | SYPRO orange fluorescence; percent of sucrose octasulfate shift, DMSO zero | calls only at 9.99 µM | hit rate 1.5% among 340,000;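 active means melting point raised past a set limit in the mean and every replicate; inconclusive means no clear call; three in four hits are not shown here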
# Target sequence (Q9HCT0 whole entry, looked up): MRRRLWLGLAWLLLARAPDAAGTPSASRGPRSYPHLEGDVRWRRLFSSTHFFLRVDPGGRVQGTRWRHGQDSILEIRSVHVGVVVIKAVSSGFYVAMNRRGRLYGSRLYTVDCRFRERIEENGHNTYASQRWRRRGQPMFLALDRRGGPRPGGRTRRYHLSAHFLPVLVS
# E coli growth: blocks Escherichia coli growth. OD600, 23 h; stronger effect = lower value. OD600 absorbance (concentration not given with the values). hit rate 0.21% among 330,000;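 active means OD600 absorbance below the run mean of sample wells minus 3.6 SD, in any replicate, cut at about 0.56 in these data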;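 further: stock transfer was 300 nL into about 60 µL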
# RanGTP-Imp inh: disruptors of Ran-importin-beta complex formation – biochemical, FRET, CFP-Ran, YFP-importin-beta, homogeneous, primary screen; cell-free CFP-Ran/YFP-importin-beta FRET ratio; inhibition, % (no concentration beside the values); hit rate 1.1% among 300,000;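 active means most replicates above 15%; inconclusive means exactly half above 15%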;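 further: 0% = DMSO wells and 100% = Ran loaded with GDP instead of GTP; wells of about 40 µL received 100 nL stock; the first replicate is given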
# UCH37 DUB inh: inhibitors of human deubiquitinating enzyme UCH37 | hit rate 0.33% among 330,000 | purified proteasome/UCH37, Ub-AMC cleavage fluorescence | inhibition, % (concentration not given with the values) | Q9Y5K5;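 active means mean of two replicates above 20%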;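 further: 0% = compound-free wells with enzyme and 100% = wells lacking proteasome; stock transfer was 100 nL into about 20 µL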
# Target sequence (Q9Y5K5 whole entry, looked up): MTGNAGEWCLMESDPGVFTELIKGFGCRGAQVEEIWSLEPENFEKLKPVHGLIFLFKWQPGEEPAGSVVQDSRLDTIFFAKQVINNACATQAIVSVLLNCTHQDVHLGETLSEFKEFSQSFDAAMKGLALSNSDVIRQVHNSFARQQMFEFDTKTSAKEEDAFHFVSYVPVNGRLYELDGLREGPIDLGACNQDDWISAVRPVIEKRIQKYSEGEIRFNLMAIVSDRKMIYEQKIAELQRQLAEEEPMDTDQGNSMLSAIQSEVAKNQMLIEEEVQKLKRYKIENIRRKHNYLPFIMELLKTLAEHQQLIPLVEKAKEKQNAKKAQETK
#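 Signal – fluorescence, ex 355 nm, em 460 nm · System – Proteasome-bound UCH37 · Input – 0.15 nM proteasome as dispensed · Timing – 30 min preincubation with enzyme, 25 min cleavage at room temperature · Read-out basis – percent inhibition of cleavage signal versus uninhibited and no-proteasome wells · Medium – Tris-HCl pH 7.4 with ATP-MgCl2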
# HNF4A DNA FP: change in binding of human HNF4 alpha to DNA; P41235; HNF4a-FITC DNA binding, fluorescence polarization, 1 h; activity change, % at 10 µM; hit rate 0.3% among 360,000; AID 1224865; in the data active means activity change above about 30%, passing the limit was not always enough;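 further: controls were the assay level and a saturating level of protein; the project sought stronger binding though the title names inhibitors; some compounds called inactive have numbers as strong as hits; positive values seem to mean higher polarization but the record does not say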
# Target sequence (P41235 whole entry, looked up): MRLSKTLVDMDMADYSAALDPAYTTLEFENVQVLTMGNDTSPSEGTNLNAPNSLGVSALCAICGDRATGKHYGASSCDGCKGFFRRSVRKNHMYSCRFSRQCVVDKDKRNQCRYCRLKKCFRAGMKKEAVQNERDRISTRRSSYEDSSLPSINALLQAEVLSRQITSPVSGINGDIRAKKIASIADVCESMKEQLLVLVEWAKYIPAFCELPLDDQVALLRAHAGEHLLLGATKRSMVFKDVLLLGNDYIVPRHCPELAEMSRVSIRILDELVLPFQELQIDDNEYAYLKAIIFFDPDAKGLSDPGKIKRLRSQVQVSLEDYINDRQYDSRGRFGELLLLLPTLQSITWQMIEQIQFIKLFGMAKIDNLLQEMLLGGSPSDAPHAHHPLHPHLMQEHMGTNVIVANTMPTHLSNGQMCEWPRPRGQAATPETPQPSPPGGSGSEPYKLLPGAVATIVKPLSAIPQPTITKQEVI
# AF4-AF9 inh: blocks AF4 peptide binding to human AF9; AlphaScreen, biotin-AF4 peptide binding to FLAG-AF9; inhibition, % at 10 µM; hit rate 0.47% among 350,000; AID 651704;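 active means every replicate reaching a set inhibition limit, whatever the replicate mean, cut at about 25% in these data; inconclusive means mean inhibition reaches that limit but some replicates miss it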;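 further: 0% = plate neutral control median and 100% = total signal loss; the record names both 10 and 1 µM as test concentration; the first replicate is given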
# Vif A3G: inhibitors of Vif binding to APOBEC3G peptide, primary screen, biochemical, TR-FRET, GST-Vif 1-94, biotin-A3G peptide, dose response retest (AID 1117319); one-dose inhibition, %; IC50 in µM for titrated hits; hit rate 0.57% among 260,000; TR-FRET GST-Vif / biotin-A3G peptide binding; higher % means a stronger effect; test concentration not given here; strong numbers were not always called active;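 active means above the screen mean plus three standard deviations and confirmed in dose response; inconclusive means results disagree or hit not tested in dose response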;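 further: Vif residues 1-94 fused to GST binding biotinylated APOBEC3G peptide 110-148; 0% = full assay without inhibitor and 100% = GST in place of GST-Vif; retest series ran down from 100 µM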
# An asterisk follows results filed as active; i = inactive; ? = inconclusive; / = not tested or not shown; & = joins results of further samples. Only part of the results is shown. The share of hits here may be higher or lower than overall.
FGF22 binding	RanGTP-Imp inh	E coli growth	UCH37 DUB inh	HNF4A DNA FP	AF4-AF9 inh	Vif A3G	canonical_smiles
i	-0.5	0.67	-4.4	-0.8&0.7	1.5&3.7	/	Cc1ccc(CN2C(=O)C(Cc3ccccc3)Nc3ncnc(N4CCCCC4)c32)cc1 (stereo not given)
i	-0.2	0.62	1.0	-4.2	3.1	/	NC(=O)c1cccc(NC(=O)Nc2ccc(Cl)cc2)c1
i	3.4	0.66	-13	-6.8	-4.5	1%	Cc1cc(N2CCOCC2)n2nc(C)c(-c3ccccc3Cl)c2n1
i	/	/	/	-0.3	1.8	/	Oc1ccc(C[C@@H](CN2CCCC2CN2C(=S)NC[C@@H]2Cc2ccccc2)N2C[C@H](Cc3ccccc3)N(CC3CCCCCC3)C2=S)cc1 (stereo not given in full)
i	/	/	/	-0.5	0.6	-6%	CCn1c(CC(=O)Nc2ccccc2F)nnc1SCC(=O)NC1=NCCS1
/	5.7	0.75	0.4	0.1	/	4%&1%	CCn1c2ccccc2c2cc(NC(=O)COC(=O)Cc3cn4ccsc4n3)ccc21
i	-3.8	0.75	6.0	-5.7	2.3	-2%	Cc1ccc(C)c(C(=O)C(C)Sc2nc3nn(-c4ccccc4)c(=O)c-3c3n2CCCCC3)c1 (stereo not given)
i	0.6	0.63	-1.8	-0.1	-4.4	/	O=C(NCc1nc(-c2ccc(Cl)cc2)no1)c1ccc2c(c1)OCO2
i	-1.1	0.7	0.5	-0.3	-6.3	-7%	Cc1cc(C)n(CC(=O)NNC(=O)c2cccc(C(F)(F)F)c2)n1
/	0.8	0.71	-0.6	-1.4	/	0%	OCc1nc2ccccc2n1CC(O)Cn1ccc2ccccc21 (stereo not given)
i	-3.4	0.66	1.8	0.5	0.8	-1%	COc1ccccc1-c1ccc(SCc2ccccc2F)nn1
i	/	/	/	-3.8	8.8	2%	O=C(C1CN(C(=O)c2cc3ccccc3o2)c2ccccc2O1)N1CCCCC1 (stereo not given)
/	7.4	/	7.0	/	/	2%	O=C(Cc1ccccc1)N[C@@H](Cc1ccc(O)cc1)C(=O)O
i	2.1	0.71	3.0	1.9	-3.0	/	CCOc1ccc(N(CC(=O)NC2CC3CCC2C3)S(=O)(=O)c2ccc(C)cc2)cc1 (stereo not given)
/	4.5	0.69	-0.4	4.3	/	3%	O=C(Nc1cccc(C(F)(F)F)c1)c1ccc2nc(N3C(=O)CCC3=O)sc2c1
i	?	0.7	0.7	0.7	1.0	23%	COc1ccccc1NC(=S)N1CCC(c2nc3ccccc3o2)CC1
i	-3.9	0.69	4.6	2.8	-0.4	/	COc1ccc(C(=O)OCC(=O)C(C)(C)C)cc1S(=O)(=O)N(C)CCc1cccnc1
i	/	/	/	4.0	-3.1	1%	CCOC(=O)c1ccc(NC(=O)c2ncn3c2C(=O)NC[C@@H]3C)cc1
i	2.5	/	/	3.1	0.0	/	CCOc1cc(/C=N/NC(=O)c2ccncc2)ccc1OC(=O)c1ccco1
i	/	/	/	-1.4	3.8	/	COc1ccc(NC(=O)c2cc(C3CCCCN3C(=O)c3cccs3)on2)c(C)c1 (stereo not given)
/	-0.3	0.7	5.1	4.8	2.0	3%	CS(=O)(=O)N1CCC(Oc2ccccc2C(=O)N2CCN(CC3CC3)CC2)CC1
/	?	/	/	-0.5	/	-10%	Cc1ccc(/C=N/N2C(=O)c3ccccc3NC2c2ccc(C)cc2)cc1 (stereo not given)
/	2.1	0.66	1.7	2.0	0.0	/	CS(=O)(=O)N(CC(=O)NCCSCc1c(F)cccc1Cl)c1cccc([N+](=O)[O-])c1
i	-1.4	0.66	-1.1	0.7	-1.7	-1%	CCCC(=O)OCC(=O)NC1CCCc2ccccc21 (stereo not given)
i	/	0.71	3.5	0.8	1.8	-2%	O=C(Cc1cccc(NC(=O)C2CCCN(C(=O)c3ccccc3)C2)c1)Nc1ccc(C(=O)N2CCCCC2)cc1 (stereo not given)
/	1.4	0.65	0.2	-0.3	/	0%	Cc1cc(Cl)ccc1NC(=S)N1CCN(C(=O)C2CCCO2)CC1 (stereo not given)
/	-0.2	/	2.1	2.8	/	4%	COc1cc2c(cc1OC)/C(=C/C#N)NC(C)(C)C2
/	0.9	0.7	2.2	0.1	/	7%	Cc1cc2c(cc1C)/C(=C\C(N)=O)NC(C)(C)C2
i	-43	/	/	19	-11	-6%	O=[N+]([O-])c1ccc(-c2ccc(/C=N/Nc3nc(N4CCCCC4)nc(N4CCCCC4)n3)o2)cc1
/	-3.2	0.68	0.4	1.6	/	8%	O=C(NCCc1ccccc1)C1c2ccccc2C(=O)N1C1CC1 (stereo not given)
i	1.9	0.74	2.3	6.0	-14	4%	CCCc1nc(SCc2ccccn2)c2c(=O)n(C)c(=O)n(C)c2n1
i	/	0.79	-40	-0.1	-8.4&-0.2	/	C[C@H](CO)N1C[C@H](C)[C@@H](CN(C)S(=O)(=O)c2ccc(F)cc2)Oc2ccc(NS(=O)(=O)c3ccc(F)cc3)cc2C1=O
/	-2.4	/	/	4.6	/	4%	Clc1ccc(/C=N/Nc2nnc(-c3ncc[nH]3)c3ccccc23)cc1
i	1.2	0.7	5.9	0.1	-4.4	-2%	CCCCCn1c(=S)[nH]c2cc(C(=O)N3CCCC3)ccc2c1=O
/	-2.5	/	/	-0.3	/	31%	C/C(=N/Oc1nc(C)cc(C)n1)c1ccc(Cl)cc1Cl
i	-3.5	0.68	5.1	-1.3	5.2	2%	O=Cc1cc([N+](=O)[O-])ccc1N1CCN(Cc2ccc3c(c2)OCO3)CC1
i	-4.0	0.67	-2.0	-0.3	-0.4	-5%	CCOC(=O)Cc1csc(NC(=S)NC(=O)c2ccccc2)n1
/	-1.3	0.78	3.0	3.7	/	0%	Cn1nc(-c2ccc(Cl)cc2)c2cc(C(=O)N3CCN(c4ccccn4)CC3)sc21
/	-2.7	/	0.4	1.6	/	-5%	Cc1cccc2nc(-c3ccccc3)nc(N[C@@H](CO)c3ccccc3)c12
i	2.9	0.69	-23	-36	0.7	/	Cc1ccc(S(=O)(=O)c2c(C(=O)c3ccccc3)cnc3cc4c(cc23)OCCO4)cc1
i	-1.0	0.68	6.1	-2.9	2.1	4%	O=C1CSC(c2ccccc2[N+](=O)[O-])N1c1ccccc1 (stereo not given)
i	-10	0.74	1.8	0.4	-4.1	6%	CCN(CC)C(=O)c1ccc2c(c1)N(Cc1ccccc1)C(=O)CS2=O (stereo not given)
/	3.3	0.7	4.2	2.5	/	6%	Cc1ccc(SC(C)C(=O)Nc2cccnc2)cc1 (stereo not given)
i	3.4	0.71	4.4	0.1	-3.4	/	Cn1c(=O)c2c(nc(SCC(=O)NC3CCCC3)n2C)n(C)c1=O
i	-1.1	0.63	5.1	1.6	-1.6	3%	Cc1nc2c(ncn2-c2ccccc2)c(=O)n1NC(=O)CN1CCCCC1
/	0.4	0.68	2.9	4.5	/	-3%	O=C(NCN1CCN(CCO)CC1)c1cnccn1
/	-4.1	0.67	1.5	-4.0	/	-1%	COc1cc2c(C(=O)N3CCN(Cc4ccc5c(c4)OCO5)CC3)cn(C)c(=O)c2cc1OC
i	1.4	/	/	-0.1	-2.2	/	CCCc1ccc(C(=O)O/N=C(\N)c2ccccn2)cc1
/	-2.5	0.7	1.8	4.7	9.0	-9%	CCOC(=O)C1(Cc2cccc(OC)c2)CCN(Cc2cccn2-c2ccccn2)CC1
i	?	0.72	1.8	3.1	11	-10%	Cc1cnc(C(=O)N2CCc3c([nH]c4ccccc34)C2c2ccc(F)cc2)cn1 (stereo not given)

# Rewritten with each value named: part of the list above.
COc1ccc(C(=O)OCC(=O)C(C)(C)C)cc1S(=O)(=O)N(C)CCc1cccnc1
  FGF22 binding: i	RanGTP-Imp inh: -3.9	E coli growth: 0.69	UCH37 DUB inh: 4.6	HNF4A DNA FP: 2.8	AF4-AF9 inh: -0.4	Vif A3G: /

CCOC(=O)c1ccc(NC(=O)c2ncn3c2C(=O)NC[C@@H]3C)cc1
  FGF22 binding: i	RanGTP-Imp inh: /	E coli growth: /	UCH37 DUB inh: /	HNF4A DNA FP: 4.0	AF4-AF9 inh: -3.1	Vif A3G: 1%

CCOc1cc(/C=N/NC(=O)c2ccncc2)ccc1OC(=O)c1ccco1
  FGF22 binding: i	RanGTP-Imp inh: 2.5	E coli growth: /	UCH37 DUB inh: /	HNF4A DNA FP: 3.1	AF4-AF9 inh: 0.0	Vif A3G: /

# Record cards (already shown):
# Cc1cc(Cl)ccc1NC(=S)N1CCN(C(=O)C2CCCO2)CC1 (stereo not given) in the list: FGF22 binding: /; RanGTP-Imp inh: 1.4; E coli growth: 0.65; UCH37 DUB inh: 0.2; HNF4A DNA FP: -0.3; AF4-AF9 inh: /; Vif A3G: 0%
# CCOc1cc(/C=N/NC(=O)c2ccncc2)ccc1OC(=O)c1ccco1 in the list: FGF22 binding: i; RanGTP-Imp inh: 2.5; E coli growth: /; UCH37 DUB inh: /; HNF4A DNA FP: 3.1; AF4-AF9 inh: 0.0; Vif A3G: /

# (next part)
FGF22 binding	RanGTP-Imp inh	E coli growth	UCH37 DUB inh	HNF4A DNA FP	AF4-AF9 inh	Vif A3G	canonical_smiles
/	-3.0	0.65	0.9	2.8	/	73%	Clc1ccc(CSc2snnc2-c2ccccc2)c(Cl)c1
i	0.4	0.64	2.3	11	51*	33%	CN(C)c1ccc(NC(=O)CN2CCC(NC(=O)C3CCCCC3)CC2)cc1
i	?	0.68	-1.9	-0.1	3.9	15%	O=C(Nc1cc(C(F)(F)F)ccc1Cl)C(Sc1n[nH]c(=O)[nH]c1=O)c1ccccc1 (stereo not given)
i	2.5	/	/	2.2	-0.7	-4%	CC(/C=N/NC(=O)CNc1n[nH]c(=O)[nH]c1=O)c1ccccc1 (stereo not given)
i	-1.1	0.66	4.7	-1.6	-5.2	2%	CCOC(=O)N1CCN(C(=O)C2CCCN(S(=O)(=O)c3cc(C)ccc3OC)C2)CC1 (stereo not given)
i	/	/	/	15	-0.3	/	Cc1ccc(Cc2c(-c3cccc(Br)c3)nc3ccc(Br)cn23)cc1
i	4.9	0.73	0.5	3.1	-0.6	/	O=C(NCCc1ccc(C(F)(F)F)cc1)C1CCC(=O)N(C2CC2)C1 (stereo not given)
i	1.3	0.66	1.0	-1.1	0.5	/	COc1ccc(SCCC(=O)NCc2ccncc2)cc1
i	-2.9	0.75	5.1	1.8	9.2	1%	CCc1ccccc1S(=O)(=O)Cc1ccc(C(=O)N2CCN(c3ccccn3)CC2)o1
/	-0.4	0.19*	2.5	-1.0	/	9%	CC(=O)c1c(C)n([O-])c2ccccc2[n+]1=O
i	/	/	/	76*	0.3	?	COc1cc(/C=N/N2C(=O)CSC2=S)cc(Br)c1O
i	-1.1	0.74	3.1	2.1	-6.6	-89%	Cc1cc(C)cc(OCC(=O)Nc2ccc3c(c2)C(=O)c2ccccc2C3=O)c1
/	4.5	0.69	3.7	-0.8	/	12%	Nc1nc(CN2CCN(c3ccccn3)CC2)nc(Nc2ccc(Cl)cc2)n1
i	6.5	0.69	-5.2	-2.2	5.7	-7%	Cc1ccc(S(=O)(=O)c2nc(-c3ccccc3Cl)oc2NCCCN2CCOCC2)cc1
i	0.8	0.66	1.1	-3.4	-0.7	/	CCc1nc(SCC(=O)NCC2CCCO2)c2c(=O)n(C)c(=O)n(C)c2n1 (stereo not given)
/	0.4	0.69	-1.8	4.2	/	5%	O=S(=O)(c1cccc(-c2nnc(SC(F)F)n2-c2ccccc2)c1)N1CCCCC1
i	0.9	0.7	-83	0.3	0.3	?	CN(C)CCCN(Cc1cc2cc3c(cc2[nH]c1=O)OCCO3)C(=O)NC1CCCCC1
/	-4.3	0.64	-1.3	-1.3	/	-1%	CC(Sc1n[nH]c(N)n1)C(=O)C12CC3CC(CC(C3)C1)C2 (stereo not given)
i	/	0.72	-8.4	3.0	-1.6	-4%	O=C(Nc1ccc(Oc2ccc(Br)cc2)cc1)C1=CC=CN2CCS(=O)(=O)N=C12
